NPYLR7 ag: activates Aedes aegypti NPYLR7 receptor; activation, % at 10 µM; 270,000 compounds, 0.15% hits; HEK293T NPYLR7/Galpha15, GCaMP6s calcium fluorescence; AID 1259423; in the data active means activation above about 40%;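 further: 0% = vehicle and 100% = reference agonist at the receptor; some compounds past the cut are filed as inactive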
NPYLR7 ag max-min: further read-out of NPYLR7 ag, marked with its call; activation, %; measured here: Max-Min RFU normalised activation; some inactives read as strong as hits;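 span of the calcium signal over five minutes; 0% = vehicle and 100% = native peptide agonist; compound fluorescence can raise it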
* marks the source's active call; other numbers are inactive results; & = joins results of further samples.

SMILES	NPYLR7 ag	NPYLR7 ag max-min
CCCCCN1CCN(c2nc3c(c(=O)[nH]c(=O)n3C)n2CCCc2ccccc2)CC1	5	3
CC(C#N)OC(=O)c1c(-n2cccc2)sc2c1CCCC2 (configuration not stated)	-1	-4
O=c1[nH]c2ccccc2c(O)c1Sc1ccccc1	5	7
Cc1ccc2nc(C)c(NC(=O)Cc3ccc(F)cc3)c(=O)n2c1	0	4
CC(NC(=O)c1cnc(Nc2ccccc2)nc1)c1cnn(C)c1 (configuration not stated)	18	10
C=CCn1c(-c2ccc(Br)cc2)n[nH]c1=S	4	0
O=C(Cc1c[nH]c2ccccc12)NC(c1ccc(F)cc1)c1ccc(SCc2ccccc2)cc1 (configuration not stated)	6	-2
Cc1ccnc(SCCn2c(N3CCC(C)CC3)nc3c2c(=O)[nH]c(=O)n3C)n1	0	9
CCc1cccc(NC(=O)N2C3CCC2CN(CC)CC3)c1 (configuration not stated)	-1	-2
Cc1nnc(NC(=O)c2cncc(Br)c2)s1	-10	-17
CC(=O)N1CCN(C(=O)c2coc(CN(CCc3c[nH]c4ccccc34)Cc3sccc3C)n2)CC1	20	19
Cc1ccc(S(=O)(=O)CCC(=O)NC2(C)CCS(=O)(=O)C2)cc1 (configuration not stated)	1	-8
COCC(C)NCc1noc(Cc2cccs2)n1 (configuration not stated)	4	-2
C=CCc1cc(CN2CCCN(C(=O)c3ccco3)CC2)ccc1O	9	7
CN(Cc1ccc2ccccc2c1)C(=O)CCC1NC(=O)NC1=O (configuration not stated)	1	1
CCC(CC)NC(=O)CN1C(=O)C(=O)N(CCC2=CCCCC2)C1=O	7	10
CNC(=O)NC(=O)C(C)Sc1nnc(-c2ccc(C(C)(C)C)cc2)n1C (configuration not stated)	4	5
Cc1ccc(C2(O)CCN(C(=O)Cc3noc4ccccc34)CC2)nc1	10	6
CCc1nc2c(OCCC3CCCCC3)cccn2c1N(C)C(=O)c1ccc(OC)cc1	14	8
CCOCCOc1nc(-c2cccc(C(F)(F)F)c2)n(-c2ccc(N)cc2)n1	-3	-10
COc1ccc2nc(SCC(=O)c3ccc(NS(C)(=O)=O)cc3)[nH]c2c1	15	7
Cc1cccc(SC2CCN(Cc3ncccc3C(=O)O)CC2)c1	-7	-10
CCOC(=O)c1nn(-c2ccc(Cl)cc2)c(=O)c2c(NC(=O)Cc3cccc(C)c3)scc12	2	-1
CC1=CC(=NNc2nc(C)cc(=O)[nH]2)CC(C)(C)C1	-2	8
CSc1nnc2c(n1)OC(c1ccc(Br)cc1)Nc1ccccc1-2 (configuration not stated)	2	2
COC(=O)c1cc(-c2ccc(OC)c(OC)c2)on1	-6	-7
CCn1cc(NC(=O)Nc2ccc(N3CCCC3)cc2C)cn1	0	-4
COc1ccc(-c2cc3nc(C)cc(N4CCCC4)n3n2)cc1OC	4	4
Cn1c(N)c(C(=O)CSc2nccc(=O)[nH]2)c(=O)n(C)c1=O	0	0
CSc1nnc(SCC(=O)Nc2ccccc2)s1	0	-3
CCC1(C)Cc2ccccc2C(NC(=O)c2ccccc2)=C1C#N (configuration not stated)	2	4
CC(C)C(=O)N1CCCC(C(=O)Nc2ccc(Br)cn2)C1 (configuration not stated)	7	2
CN(C)S(=O)(=O)N(C)Cc1ccccc1	1	8
O=C(C1CCC(CNc2c(N3CCCCC3)c(=O)c2=O)CC1)N1CCN(C2CCCC2)CC1 (configuration not stated)	4	4
CCn1c(C2CCCN(Cc3cc(=O)c4ccccc4[nH]3)C2)n[nH]c1=O (configuration not stated)	3	0
Nc1c(Sc2ccccc2)cc(Sc2ccccc2)c2c1C(=O)c1ccccc1C2=O	23	19
CCOC(=O)c1[nH]c2ccccc2c1NC(=O)c1ccc(OC(C)C)cc1	3	12
CCOc1ccc2nc(-c3nccn3C(C)Cn3cncn3)ccc2c1 (configuration not stated)	4	3
Cc1cc(C)c(C(=O)C2OC(=O)C(C)(C)C(=O)C2(C)C)c(C)c1 (configuration not stated)	-5	-6
Cc1ccc(C)c(-n2c(SC(C)C(=O)N3CCCC3)nc3ccccc3c2=O)c1 (configuration not stated)	-1	1
C=CCN(Cc1csc(COc2c(OC)cccc2OC)n1)C(=O)C1CCCC1	12	6
Cc1cccc(CO[C@]2(C(=O)NCCN3CCCC3)CC(OCc3cccc(OC(F)(F)F)c3)[C@@H]3OC(C)(C)O[C@@H]3C2)c1 (some centres not stated)	5	11
NC(=O)CC1(NS(=O)(=O)c2ccc(Br)s2)CCOCC1	13	10
CCCNC(=O)Cn1nc(C(C)C)c2cnn(-c3ccc(F)cc3)c2c1=O	7	7
CN(Cc1cn(-c2ccccc2)nc1-c1ccco1)C(=O)CCC(=O)O	0	-1

Later entries
Every second line gives: NPYLR7 ag, NPYLR7 ag max-min
- CCCCC(O)CN(Cc1c(-c2ccccc2)nn(C)c1Oc1cccc(OC)c1)CC1CCCO1 (configuration not stated)
    7, 10
- O=C1CN(C(=O)CCc2ccccc2)CC(O)CN1CCOc1ccccc1 (configuration not stated)
    10, 22
- CCc1cc(C(=O)NC2=C(C)N(Cc3ccccc3C)NC2C)no1 (configuration not stated)
    0, -2
- CCCCc1ccc(C(=O)N(CC(=O)N2CCc3sccc3C2c2ccc(F)cc2)C(C)CC)cc1 (configuration not stated)
    -3, 2
- CC(C)(C)OC(=O)Nc1ccc(F)cc1NC(=O)C1CCC(=O)N1 (configuration not stated)
    14, 10
- O=C(COc1ccccc1)Nc1nn(Cc2ccc(Oc3ccccc3)cc2)c2ccccc12
    13, 16
- Cn1c2ccccc2n2c(C=O)c(-c3ccccc3)nc12
    -11, -18
- COc1cc(NS(=O)(=O)c2ccccc2Cl)c(OC)cc1Cl
    -6, -7
- O=C(c1ccc(C(F)(F)F)o1)N1CCC2(CC1)CCN(Cc1ccccc1)C2=O
    -4, 1
- Cc1oc(C(C)(C)C)cc1C(=O)N1CCN(C2c3ccccc3CCc3ccccc32)CC1
    20, 4
- Cc1nc(CN(C)Cc2c(C)n(C)n(-c3ccccc3)c2=O)no1
    6, 1
- CCOc1ccc(NC(=O)Cn2nnc(C(=O)Nc3ccc(C)c(C)c3)c2N)cc1
    -6, -12
- COc1ccc(C(=O)Nc2c(-c3ccc(C)cc3)nc3ccc(C)cn23)cc1
    -3, 0
- O=C(NCCCn1ccnc1)c1ccc(Br)o1
    4, 2
- Cc1ccc(S(=O)(=O)Nc2cccc(C3SCC(=O)N3c3ccc(C(F)(F)F)cc3)c2)cc1 (configuration not stated)
    7, 13

Ordered by SMILES length (smallest number first): part of the list above.
Every second line gives: NPYLR7 ag, NPYLR7 ag max-min
- O=C(NCCCn1ccnc1)c1ccc(Br)o1
    4, 2
- CC(C)(C)OC(=O)Nc1ccc(F)cc1NC(=O)C1CCC(=O)N1 (configuration not stated)
    14, 10
- Cc1oc(C(C)(C)C)cc1C(=O)N1CCN(C2c3ccccc3CCc3ccccc32)CC1
    20, 4
- CCCCC(O)CN(Cc1c(-c2ccccc2)nn(C)c1Oc1cccc(OC)c1)CC1CCCO1 (configuration not stated)
    7, 10

Further records follow.
Every second line gives: NPYLR7 ag, NPYLR7 ag max-min
- Cc1cccc(-c2cn(CCCn3nnc4ccccc43)nn2)n1
    0, 10
- COc1ccc(CNC(=O)CN(C)Cc2ccc(C3CC3C)o2)cc1OC (configuration not stated)
    2, 1
- OCC1(CCOc2ccccc2)CCCN(c2nccc3occc23)C1 (configuration not stated)
    23, 6
- Cc1ccc(N2C(=O)CSC2c2c(F)cccc2Cl)cc1F (configuration not stated)
    -6, -13
- COC(=O)c1cn(Cc2nc(-c3cc(OC)c4c(c3)OCO4)oc2C)cn1
    11, 4
- CCN(CC)CCCNc1ncnc2sc3c(c12)CCC(C)C3 (configuration not stated)
    3, -3
- Cn1nnnc1SCC(=O)N1N=C(c2cccs2)CC1c1cccs1 (configuration not stated)
    1, 12
- CCc1nc2c(OCc3c(C)noc3C)cccn2c1N(C=O)Cc1ccccc1
    -7, -6
- CCN1CCc2cc(OC)c(OC)cc2C1CNC(=O)c1cccc(Cl)c1 (configuration not stated)
    -7, -4
- O=C(O)c1[nH]ncc1CN1CCN(c2nsc3ccccc23)CC1
    23, 15
- Cc1ccc(CNC(=O)Cn2c(CO)cnc2SCc2ccc(C)cc2)cc1
    11, 5
- CC1CCN(c2nc(N3CCOCC3)nc(N3CCOCC3)n2)CC1
    -3, -3
- Cc1nnsc1C(=O)N1Cc2cnn(Cc3ccc(F)cc3)c2C1
    6, 4
- CCc1ccc(-c2nc3c(c(=O)[nH]2)CN(C(=O)c2ccc(C(C)(C)C)cc2)CC3)cc1
    27, 35
- CCOCCOc1ccccc1C(=O)N1CC[C@H](O)C[C@@H]1C(=O)O
    6, 3

Taken from above:
`Cc1ccc(CNC(=O)Cn2c(CO)cnc2SCc2ccc(C)cc2)cc1` | NPYLR7 ag max-min: 5
`CSc1nnc(SCC(=O)Nc2ccccc2)s1` | NPYLR7 ag max-min: -3
`Cc1cccc(SC2CCN(Cc3ncccc3C(=O)O)CC2)c1` | NPYLR7 ag: -7
`O=C(COc1ccccc1)Nc1nn(Cc2ccc(Oc3ccccc3)cc2)c2ccccc12` | NPYLR7 ag max-min: 16
`CCc1cccc(NC(=O)N2C3CCC2CN(CC)CC3)c1` (configuration not stated) | NPYLR7 ag max-min: -2

Continuation.
Every second line gives: NPYLR7 ag, NPYLR7 ag max-min
- CCCN1CC(NC(=O)C(=O)Nc2ccccc2Cl)CC1=O (configuration not stated)
    12, 7
- CC(OC(=O)C1CSC2(CCCC2)C(=O)N1)C(=O)NCc1ccccc1Cl (configuration not stated)
    0, 1
- Cc1sc2nc(C(C)C)nc(N3CCN(C(=O)c4ccc(Cl)cc4)CC3)c2c1C
    -12, -10
- CC(Cc1cnccn1)NC(=O)C1(N(C)Cc2ccccc2)Cc2ccccc2C1 (configuration not stated)
    8, -1
- Cc1cc2c(SCC(=O)Nc3ccccc3)ncnc2s1
    -9, -11
- CCNc1ncc(C(=O)N(C)Cc2ccc(OC)c3ncccc23)cn1
    5, 4
- Cc1nc(SCC(=O)Nc2c(C)cccc2C)c2c3c(sc2n1)CCC3
    -3, -6
- CSc1ccccc1NC(=O)CN(C)CCOC1CCCCC1C (configuration not stated)
    2, 0
- c1ccc(CN(Cc2ccccn2)[C@H]2C[C@H]3CCOC[C@@]3(c3ccccc3)C2)cc1
    6, 16
- O=C(O)c1ccc(C(=O)O)s1
    18, 15
- COc1ccc(CN2CCn3nc(C(=O)N4CC(C)OC(C)C4)cc3C2=O)cc1 (configuration not stated)
    7, 14
- O=C(NC(=S)NC1CCCCCCC1)c1ccco1
    1, -9
- COC(=O)c1[nH]ncc1CN1CCN(c2ccccc2OC)C(C)(C)C1
    0, 2
- Cc1ccn2c(NC3CCCCC3)c(-c3cccc(O)c3)nc2c1
    7, 7
- Nn1ccc2nc3ccn(C4CCCCCC4)c(=O)c3cc2c1=O
    3, 1
- Cc1nn2c(-c3ccncc3)nnc2c2ccccc12
    -1, -2
- COc1ccc(NC(=O)CCN(Cc2ccccc2)c2nc(-c3ccco3)nc3ccccc23)cc1
    22, 24
- CCn1cncc1CNC(=O)c1cccc(NCc2cccnc2)c1C
    7, 4
- CC(C)c1ccccc1NC(=O)NCCN1CCN(c2ncccn2)CC1
    -3, -2
- CCOC(=O)CN1CCN(c2cc(OC)ccc2OC)C(=O)C1C (configuration not stated)
    -1, 6
- C=CCn1c(SCCO)nc2scc(C3CC3)c2c1=O
    -2, -3
- Cc1ccc(CNC(=O)CN2CCc3sccc3C2)cc1
    2, 3
- C/C=C/C(=O)Nc1cc(C)nn1-c1nc(C)cc(=O)[nH]1
    9, 2
- Cc1cc(O)c(C2=Nc3ccccc3SC(c3ccc([N+](=O)[O-])cc3)C2)c(=O)o1 (configuration not stated)
    -17, -21
- CC(C)(C)c1ccc(SCc2ccc(C(=O)N3C4CCC3CC(Oc3ccc(F)cc3F)C4)cc2)cc1 (configuration not stated)
    7, -1
- NC(=O)c1cccc(OCCC(=O)N2CC3(CC3)c3ccccc32)c1
    -1&2, -3&0
- COC(=O)c1ccc(C)c(-n2c(N)c(C(=O)NCc3ccco3)sc2=S)c1
    7, -4
- CCOc1ccc(NC(=O)c2cncc(Br)c2)cc1F
    -1, -4
- COc1ccccc1NC(=O)C1=C(C)NC(=O)NC1c1ccc(Cl)cc1 (configuration not stated)
    -1, -1
- C=CCOCC(O)CN(Cc1ccc(C)o1)C1CC1 (configuration not stated)
    36, 22

Complete entries, quoted from the list. Order of values: NPYLR7 ag	NPYLR7 ag max-min
NC(=O)c1cccc(OCCC(=O)N2CC3(CC3)c3ccccc32)c1 in the list: -1&2	-3&0
Cc1nn2c(-c3ccncc3)nnc2c2ccccc12 in the list: -1	-2
C/C=C/C(=O)Nc1cc(C)nn1-c1nc(C)cc(=O)[nH]1 in the list: 9	2
Cc1ccc(CNC(=O)CN2CCc3sccc3C2)cc1 in the list: 2	3
COC(=O)c1ccc(C)c(-n2c(N)c(C(=O)NCc3ccco3)sc2=S)c1 in the list: 7	-4

Next section.
Every second line gives: NPYLR7 ag, NPYLR7 ag max-min
- OC(COc1ccccc1CN1CCc2ccccc2C1)CN1CCCCC1 (configuration not stated)
    -2, -2
- O=C(CC12CC3CC(CC(C3)C1)C2)NNC(=O)C12CC3CC(CC(C3)C1)C2
    4, 3
- COc1cc(NC(=O)c2cc(C(C)C)no2)ccc1NC(=O)CC(C)C
    -1, -4
- CNC(=O)c1ccc(-c2cccc3ccccc23)o1
    -2, 1
- O=C(CSc1nnc(CNC(=O)c2cccs2)n1-c1cccc(C(F)(F)F)c1)Nc1ccccc1F
    -8, -7
- CCC(=O)N[C@@H]1c2ccccc2C2(CCN(C(=O)c3ncc(C)[nH]3)CC2)[C@H]1OCc1cccnc1
    11, 6
- CSc1ccc(C=C2N=C(c3ccccc3OC(F)F)OC2=O)cc1
    3, 16
- COc1ccccc1N1C(=O)C2C(C1=O)C1C=CC2C12CC2 (configuration not stated)
    -6, -6
- Cc1noc(C(F)(F)F)c1C(=O)Nc1cccc(N2CCN(CC3CC3)CC2)c1
    -1, -2
- Cn1c(C2CCCO2)nc2cc(NC(=O)CC3CCCC3)cc(C(=O)NC3Cc4ccccc4C3)c21 (configuration not stated)
    23, 10
- CNC(=O)c1ccc(=O)n(Cc2ccc(F)cc2Br)c1
    -5, -5
- CCCNC(=O)Cn1c(=O)c2c(OCC)c(C)cnc2n(C)c1=O
    9, 8
- CCOC(=O)C(CC)Sc1nnc(NC(C)=O)s1 (configuration not stated)
    -2, 0

Some of the compounds tested; count on the stated rates, not on these rows.
